Screening results from PubChem BioAssay.
Bead autofluor – compound fluorescence in toxin protease inhibitor counterscreen; compound autofluorescence counterscreen, microsphere flow cytometry; stronger effect = higher value; fluorescence intensity (test concentration not listed); actives 3.1% (n = 360,000); AID 624483;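 active means at least 3 SD above the mean of all compounds, about 16000 in these data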;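 further: 100 nL of 1 mM stock went into each well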
Mtb hypoxia inh – reduces hypoxia-regulated biosensor signal in M. tuberculosis; M. tuberculosis hypoxia-regulated fluorescent reporter, fluorescence; fluorescence inhibition, % (concentration not given with the values); actives 0.1% (n = 300,000); AID 1159583;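 active means 35 to 45% if threefold the growth effect, above 45% if 1.5-fold the growth effect; inactive means the rest, general growth blockers included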;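 further: wells of about 50 µL received 100 nL stock; 0% = vehicle wells and 100% = reference inhibitor wells; whole bacteria with a GFP reporter of the hypoxia response; strong numbers were not always called active; many hits fall short of the cut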
PrP UTR inh – suppresses PrP 5' UTR mRNA reporter expression | actives 0.35% (n = 340,000) | inhibition, % (concentration not given with the values) | cell-based PrP 5' UTR mRNA reporter, plate reader;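 active means every replicate at 50% or more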;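 further: 0 = median of the neutral control wells; tested in H4 reporter cells; numbers are from one replicate; inactives centre near -14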
BJeLR lethal – kills HRASV12-expressing BJeLR cells; inhibition, % (concentration not given with the values); actives 0.17% (n = 300,000); BJeLR (HRASV12) viability, CellTiter-Glo ATP luminescence, 48 h; reference of the scale not given here;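 active means replicate mean above 50%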;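 further: 50 nL library stock added to about 25 µL; numbers are from one replicate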
ugtP null kill – compounds lethal to S. aureus RN4220 ugtP deletion mutant; OD600 growth, 16 h; some inactives read as strong as hits; growth inhibition, % (no concentration beside the values); actives 0.54% (n = 330,000); AID 1259309;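 active means z-score under -3 and OD600 up to 0.15 on both plates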;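 further: plate controls were untreated wells for no effect and antibiotic for full effect; wells of about 80 µL received 100 nL stock; the first replicate is given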
Sa RN4220 lethal – kills Staphylococcus aureus RN4220. S. aureus RN4220 growth, OD600, 16 h. actives 0.33% (n = 330,000). inhibition, % (no concentration beside the values);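 active means z-score of -3 or lower and OD600 up to 0.18 on both plates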;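 further: plate controls were untreated cells for no effect and reference antibiotic for full effect; stock transfer was 100 nL into about 80 µL; one replicate is shown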
Mtb hypoxia inh growth – second read-out of Mtb hypoxia inh, no call of its own (marks repeat the call); growth inhibition, %; measured here: M. tuberculosis growth (absorbance);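 0% = vehicle and 100% = reference antibiotic; read after six days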
Numbers without * were called inactive; . = no result given.

SMILES	Bead autofluor	Mtb hypoxia inh	Mtb hypoxia inh growth	PrP UTR inh	BJeLR lethal	ugtP null kill	Sa RN4220 lethal
O=C(Nc1ccccc1Cc1ccccc1)C1CC(=O)N(c2ccc3c(c2)OCCO3)C1 (centres undefined)	4304	11	5	-35	-2	4	3.2
O=C(Cn1cc([N+](=O)[O-])ccc1=O)NCC(=O)Nc1ccc(F)c(F)c1F	3132	10	-2	-26	.	4	2.2
C=CCSc1n[nH]c(-c2ccc(OCCCC)cc2)n1	16907*	-5	0	-91	6	-4	1.0
NCCc1c(C(=O)O)[nH]c2ccc([N+](=O)[O-])cc12	4196	12	12	-5	5	2	3.8
Cc1cccc2cc(C#N)c(SCC(=O)NCc3cccs3)nc12	2451	-8	-3	-11	1	0	6.6
CC1(C)CC(=O)C=C(Nc2ccccc2C#N)C1	4217	1	-6	-11	-11	3	2.0
Oc1ccc(Cl)c(Cl)c1	4271	12	5	1	.	-8	1.2
Cc1ccc(NC(=O)NC2(C(=O)NCc3ccco3)CCCCC2)cc1	5672	2	9	-24	3	11	1.8
O=C(NCCNC(=O)c1cc(Cl)ccc1Cl)c1cnccn1	3992	.	.	-17	16	.	.
CCC(=O)NC(C)C(c1cccs1)N1CCOCC1 (centres undefined)	12351	-5	3	.	2	3	1.2
CCN1CCN(c2ccc(S(=O)(=O)N3CCOCC3)cc2NC(=O)C(C)Oc2ccc(F)cc2)CC1 (centres undefined)	7978	7	11	-11	.	2	4.1
COc1cc(NC(=O)C2CCN(c3cnccn3)CC2)cc(OC)c1	3458	6	-2	-14	-3	6	0.6
C/C(=N\NC(=O)c1cccc(F)c1)c1cccc(NC(=O)c2ccc(F)cc2)c1	2568	.	.	-5	-8	.	.
COc1ccc(CCNC(=O)c2ccc(CNS(=O)(=O)c3cc(C)ccc3C)cc2)cc1OC	5690	.	.	-21	-2	-3	0.0
CCO[C@H]1OC(C(=O)Nc2ccccc2)=C[C@@H](c2coc3ccccc3c2=O)[C@@H]1CCCO	3306	.	.	-13	-16	.	.
COc1cc2ccccc2cc1C(=O)NC(=S)Nc1cccc(C(=O)O)c1	4656	5	-2	1	0	49	35
CCCCNc1nc2c(c(=O)n(Cc3ccccc3)c(=O)n2C)n1C	2996	12	1	-18	-12	10	0.7
O=C(CCc1nnc(CCC2CCCCC2)o1)NCCc1cccnc1	2677	18	27	-30	2	13	0.9
CN(C)S(=O)(=O)c1cccc(NC(=O)c2cccc(NS(=O)(=O)c3ccccc3)c2)c1	3633	.	.	-18	-8	.	.
CCCCn1c(SCC(=O)NC(C)(C)C)nnc1-c1ccco1	11251	13	0	.	2	9	6.5

Exported field by field: entries from further up.
> CN(C)S(=O)(=O)c1cccc(NC(=O)c2cccc(NS(=O)(=O)c3ccccc3)c2)c1
- Bead autofluor = 3633
- Mtb hypoxia inh = .
- Mtb hypoxia inh growth = .
- PrP UTR inh = -18
- BJeLR lethal = -8
- ugtP null kill = .
- Sa RN4220 lethal = .
> O=C(Nc1ccccc1Cc1ccccc1)C1CC(=O)N(c2ccc3c(c2)OCCO3)C1 (centres undefined)
- Bead autofluor = 4304
- Mtb hypoxia inh = 11
- Mtb hypoxia inh growth = 5
- PrP UTR inh = -35
- BJeLR lethal = -2
- ugtP null kill = 4
- Sa RN4220 lethal = 3.2

(more compounds)
SMILES	Bead autofluor	Mtb hypoxia inh	Mtb hypoxia inh growth	PrP UTR inh	BJeLR lethal	ugtP null kill	Sa RN4220 lethal
O=C1OC(c2ccc(Cl)cc2)=N/C1=C\C=C\c1ccco1	4551	8	8	-7	-4	3	6.3
O=C(CN(c1cccc([N+](=O)[O-])c1)S(=O)(=O)c1ccccc1)NCc1ccccc1	2545	1	5	-19	4	7	4.6
COc1ccc(NC(=O)COC(=O)Cc2ccsc2)c(OC)c1	3863	5	10	-10	.	0	2.5
O=C1N(Cc2cccc(Cl)c2)C[C@@H]2C[C@@H](c3ccco3)N3CCC[C@@]123	3116	-13	-2	-41	-3	1	0.2
CC(=O)Nc1cc(C(=O)N2CCCC2)ccc1Sc1ccc(C)cc1	7611	6	1	-19	-4	7	2.7
Cc1ccc(C(=O)N(C)c2nnc(-c3ccncc3)s2)cc1	4097	-2	14	-73	-7	0	-0.4
O=C(NC1CCCCC1)N1CCN(S(=O)(=O)c2ccc(F)cc2)CC1	2153	.	.	-11	-4	.	.
Cc1cc(Nc2ccc(Br)cc2)nc(-c2ccccc2O)n1	3823	-1	8	-29	-5	58	0.5
CC(N)Cc1cnc[nH]1 (centres undefined)	.	1	6	.	.	-1	7.1
CCC(CC)C(=O)Nc1cccc(C(C)=NNC(=O)c2ccccc2Cl)c1	.	11	4	.	.	-4	-1.3
Cc1cccc(S(=O)(=O)Nc2ccc3c(c2)OCCO3)c1	4395	19	5	-12	11	9	8.8
CCOc1ccc(NS(=O)(=O)c2ccc3c(c2)CCN3C(=O)CCC(=O)O)cc1	9745	7	6	-12	10	9	4.2
O=C1c2cccc3cccc(c23)N1CN1CCN(c2ccccn2)CC1	3578	14	10	-3	-10	-13	-11
CCOc1ccccc1C=NNC(=O)CNC(=O)c1ccc(S(=O)(=O)N2CCOCC2)cc1	.	2	17	.	.	-3	4.6
COC(=O)c1c(NC(=O)/C=C/c2ccco2)sc2c1CCC2	2004	4	0	-11	-5	5	1.9
COC(=O)c1ccc(C)c(NC(=O)CCSc2ccc(C)cc2)c1	2784	3	0	-18	9	2	6.4
Cc1ccc(C)n1NC(=O)c1cccc(Cl)c1	3787	.	.	-14	5	-6	0.1
COc1ccccc1CCn1c(N)cc(=O)[nH]c1=O	2991	-10	-6	5	-7	-4	-8.3
Cc1ccc(/C([O-])=C(/C(=S)NCc2ccccc2)[n+]2ccccc2)cc1[N+](=O)[O-]	4551	14	2	-15	-17	8	0.6
COc1ccc(Oc2nc(OC)cc(OC)n2)cc1	2495	15	9	-14	-5	3	3.5

Going on with the list:
SMILES	Bead autofluor	Mtb hypoxia inh	Mtb hypoxia inh growth	PrP UTR inh	BJeLR lethal	ugtP null kill	Sa RN4220 lethal
Cc1ccc2c(c1)COc1c3ccc(C(=O)NC(C)C)cc3nn1-2	4137	0	9	-58	18	-1	1.4
O=C(NN=Cc1c(O)ccc2ccccc12)c1ccc2c(c1)OCO2	3094	7	-7	35	.	20	12
Cc1ccccc1C(=O)NC1CCN(C(=O)N2CCOCC2)CC1	2399	1	-1	-6	-3	2	-14
COC(=O)c1[nH]c2ccc(F)cc2c1NS(=O)(=O)c1ccc(OC)cc1OC	4111	-1	5	-13	3	2	0.3
CCCC1(c2ccccc2)NC(=O)N(CC(=O)Nc2cc(S(=O)(=O)N3CCOCC3)ccc2Cl)C1=O (centres undefined)	3938	8	1	-7	4	1	-12
N#Cc1nc(COc2cccc(Cl)c2)oc1N1CCN(c2ccccc2)CC1	10848	3	10	-26	4	-22	4.1
N#Cc1c2n(c3c(=O)n(Cc4ccccc4Cl)cnc13)CCCC2	9661	5	6	-27	2	-7	3.9
O=S(=O)(c1cccc2cccnc12)N1CCN(Cc2ccc3c(c2)OCO3)CC1	3434	3	3	3	3	8	-1.1
CCN(/C=N/c1sc2c(c1C#N)CCCCC2)CC	2029	.	.	-53	-5	.	.
COc1ccc(Cl)cc1N(CC(=O)N/N=C/c1ccc(OCC(N)=O)cc1)S(C)(=O)=O	4703	.	.	-18	0	.	.
COCCn1c(=NC(=O)CN2C(=O)CCC2=O)sc2cc(S(N)(=O)=O)ccc21	3129	2	4	-27	11	3	4.6
Cc1ccc(NC(=O)c2sc(Cl)nc2-c2ccccc2)cc1	2406	2	-1	0	2	10	1.0
Cc1nn(-c2ccccc2Cl)c(Cl)c1C=NNc1nc2ccccc2s1	.	0	0	.	.	-21	1.1
Cc1cc(OCC(=O)Nc2ccccc2N2CCOCC2)c(C(C)C)cc1Cl	3913	5	10	-9	.	1	-3.5
CCOC(=O)Cn1ccc(NC(=O)COc2ccc(F)cc2)n1	6119	-3	-14	-14	-10	2	3.6
CC(C)(C)C(=O)CN1C(=O)NC2(CCCc3ccccc32)C1=O (centres undefined)	3904	2	-5	-16	-1	2	2.0
COc1ccc(CCNC(=O)C(=O)NCCC2CCCCN2S(=O)(=O)c2cccs2)cc1 (centres undefined)	4837	11	6	-6	4	3	4.0
COc1ccc(NC(=O)COC(=O)c2ccc(OCc3ccccc3Cl)c(OC)c2)c(OC)c1	8126	10	7	-37	-7	3	6.1
Cc1cccc(-n2c(N)c(C(=O)NCCN3CCOCC3)c3nc4ccccc4nc32)c1	.	-17	-6	.	-5	-7	-0.2
Cc1cccc(C)c1NC(=O)CN(C)C(=O)C1=COCCO1	3862	2	4	-15	.	3	4.3

Following part:
SMILES	Bead autofluor	Mtb hypoxia inh	Mtb hypoxia inh growth	PrP UTR inh	BJeLR lethal	ugtP null kill	Sa RN4220 lethal
O=C(c1ccc(Br)cc1)N(c1ccccn1)C1CCCCC1	5408	4	-1	-27	5	2	-0.1
CC(=O)Nc1ccc(Nc2ccccc2)cc1	4478	6	-4	5	-3	1	-1.8
CCCCn1c(N)c(N(CC)C(=O)c2ccncc2)c(=O)[nH]c1=O	5650	16	-2	-20	.	-2	-1.7
CC(=O)Nc1cccc(OCC(O)Cn2cnc3ccccc32)c1 (centres undefined)	22621*	5	10	-6	2	0	1.2
Cc1ccc(NC(=O)C(c2ccccc2)c2ccccc2)nc1	2957	7	5	1	-4	3	1.1
CCC(C(=O)OCC(=O)Nc1c(Cl)cccc1Cl)c1ccccc1 (centres undefined)	2075	4	9	-42	-6	5	6.5
COc1ccc(C(=O)/C=C/c2ccc(OC)c(CN3CCOCC3)c2)cc1	10964	.	.	-10	-12	.	.
CN(Cc1ccccc1)C(=C(Cl)Cl)/C(=C1/NCCN1C)[N+](=O)[O-]	4154	9	4	2	-5	3	6.4
CC(C)(C)c1ccc(CNC(=O)C2CCCN2C(=O)Nc2ccccc2)cc1 (centres undefined)	3998	8	-3	-8	-8	6	-2.5
CCOc1cc(C=Nn2cnnc2)ccc1OS(=O)(=O)c1ccccc1	.	10	4	.	.	2	11
O=C(/C=C/c1ccc(Br)cc1)c1ccc(NC(=O)c2ccco2)cc1	9255	8	9	12	-1	0	11
O=C(CCCCn1cnc2c(=S)nc[nH]c21)Nc1ccc(C(=O)O)cc1	3008	8	7	-13	.	11	7.3
COc1cc(NC(=O)c2cnc(NCc3ccccc3)nc2C)cc(OC)c1OC	3393	-1	10	29	10	3	2.6
CCOC(=O)c1cccc(NC(=O)CCCn2c(=O)c3cccn3c3cccnc32)c1	5322	-3	8	-25	1	0	0.4
CCCn1c(SCC(=O)Nc2nnc(CC)s2)nnc1-c1ccncc1	4774	4	4	-37	10	2	0.8
CC(=O)Nc1ccc(S(=O)(=O)N2CCCC2C(=O)Nc2ccc(F)cc2)cc1 (centres undefined)	4322	6	-5	-34	1	4	0.1
Cc1ccc(S(=O)(=O)N2CCN(C(=O)CN3CCOCC3)C2C(C)C)cc1 (centres undefined)	22471*	6	7	-31	17	0	1.0
CC(=O)OC1COC(n2c(O)c(N=NC(N)=S)c3ccccc32)C(OC(C)=O)C1OC(C)=O (centres undefined)	4198	12	2	-18	-5	2	6.2
NC(=O)Cc1nc2scc(-c3ccccc3)c2c(=O)[nH]1	3962	6	0	-6	-2	8	5.3
Cc1cc(C)c(NC(=S)N(CCN(C)C)C(C)c2cccnc2)c(C)c1 (centres undefined)	3210	2	2	-18	-2	4	7.2

Continued:
SMILES	Bead autofluor	Mtb hypoxia inh	Mtb hypoxia inh growth	PrP UTR inh	BJeLR lethal	ugtP null kill	Sa RN4220 lethal
C=CCN1C(=O)C(Cc2ccc(Br)cc2)SC1=NN=Cc1ccco1 (centres undefined)	.	-1	3	.	.	5	5.8
CC(=O)Oc1ccc(C(=O)Nc2ccccc2C(=O)NCC(C)C)cc1	7129	-5	2	-10	-5	-3	8.8
COCCN(C(=O)COC(=O)CSc1ccc2ccccc2c1)c1c(N)n(Cc2ccccc2)c(=O)[nH]c1=O	4166	8	-4	-20	1	4	9.1
COC(CNC(=O)C(=O)Nc1cc2c3c(c1)CC(=O)N3CCC2)OC	5037	12	17	-2	5	-3	1.0
COc1ccc(NC(=O)C(NC(C)=O)C(=O)NCc2ccccc2OC)cc1 (centres undefined)	2754	.	.	-19	-1	2	1.5
CC1(C)CC(=O)C2=C(C1)Nc1ccccc1NC2c1cccc(F)c1 (centres undefined)	3781	-1	13	-14	2	4	-3.0
O=C(NNC1CC(=O)N(c2ccccc2)C1=O)c1ccco1 (centres undefined)	4389	7	5	-27	-6	-2	4.3
